LANA-H2A inh = blockers of LANA interaction with H2A/H2B – biochemical, FP readout, HTS, primary screen; inhibition, % (concentration not given with the values); 320,000 tested, 0.6% active; cell-free LANA-H2A/H2B peptide, fluorescence polarization; Protein LANA1 (Human herpesvirus 8 type P (isolate GK18)), Q9QR71; in the data active = inhibition mostly above about 10%, no sharp cut-off; inactive = mostly below about 6.7%;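 also: stock transfer was 7.5 nL into about 10 µL; 0% = median of vehicle wells and 100% = median of positive control wells; one replicate is shown; the record names a cut of 25% in any replicate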
Target sequence (Q9QR71 whole entry, looked up): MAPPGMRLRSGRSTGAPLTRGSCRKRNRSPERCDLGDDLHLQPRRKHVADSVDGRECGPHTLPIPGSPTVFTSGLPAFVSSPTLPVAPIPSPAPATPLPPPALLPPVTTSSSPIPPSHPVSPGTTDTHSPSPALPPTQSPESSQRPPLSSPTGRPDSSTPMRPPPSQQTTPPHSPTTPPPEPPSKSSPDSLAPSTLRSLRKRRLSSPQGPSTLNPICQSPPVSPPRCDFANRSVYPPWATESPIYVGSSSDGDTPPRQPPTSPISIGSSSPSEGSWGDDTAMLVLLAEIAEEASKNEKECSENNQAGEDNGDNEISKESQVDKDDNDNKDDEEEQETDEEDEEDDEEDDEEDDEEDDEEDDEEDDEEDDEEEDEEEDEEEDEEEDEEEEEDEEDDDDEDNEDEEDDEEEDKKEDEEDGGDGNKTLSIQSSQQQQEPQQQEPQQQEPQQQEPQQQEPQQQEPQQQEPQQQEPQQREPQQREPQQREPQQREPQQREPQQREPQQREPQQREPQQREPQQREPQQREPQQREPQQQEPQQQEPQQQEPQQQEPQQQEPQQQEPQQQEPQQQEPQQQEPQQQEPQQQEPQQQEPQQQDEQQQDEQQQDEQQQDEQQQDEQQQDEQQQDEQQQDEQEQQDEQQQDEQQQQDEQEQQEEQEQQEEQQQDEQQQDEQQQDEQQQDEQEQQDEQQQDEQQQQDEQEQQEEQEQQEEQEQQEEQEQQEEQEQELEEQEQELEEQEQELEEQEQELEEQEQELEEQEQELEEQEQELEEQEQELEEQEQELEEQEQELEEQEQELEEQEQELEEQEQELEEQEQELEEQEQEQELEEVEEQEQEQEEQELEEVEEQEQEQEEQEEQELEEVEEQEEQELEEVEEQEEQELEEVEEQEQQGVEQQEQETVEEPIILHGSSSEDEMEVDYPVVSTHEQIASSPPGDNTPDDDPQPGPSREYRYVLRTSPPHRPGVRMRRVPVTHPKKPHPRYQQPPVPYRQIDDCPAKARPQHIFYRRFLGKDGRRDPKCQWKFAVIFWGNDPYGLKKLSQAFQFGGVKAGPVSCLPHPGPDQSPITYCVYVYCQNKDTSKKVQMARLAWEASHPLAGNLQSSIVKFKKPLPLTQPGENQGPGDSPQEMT
B2AR ag = beta2AR agonists driving receptor internalization, primary screen, cell-based, FAP fluorogen, flow cytometry; response, % (no concentration beside the values); 340,000 tested, 0.43% active; Am2.2-beta2AR cells; reference of the scale not given here; AID 504454, 2011;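 active = response above a set limit, near 3 SD of response in nonfluorescent compounds, cut at about 42% in these data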;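 also: stock transfer was 100 nL into about 11 µL; a reference agonist was the positive control; negative values mostly stem from fluorescent compounds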
UCH37 DUB inh = inhibitors of human UCH37 deubiquitinase, primary screen, biochemical, Ub-AMC cleavage, fluorescence | purified proteasome/UCH37 | inhibition, % (no concentration beside the values) | 330,000 tested, 0.33% active | AID 588478, 2011;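 active = mean of two replicates above 20%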;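 also: 0% = compound-free wells with enzyme and 100% = wells lacking proteasome; stock transfer was 100 nL into about 20 µL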
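Material: Human UCH37 enzyme supplied as purified proteasome complex | Schedule: 30 min compound-proteasome preincubation then 25 min substrate reaction, room temperature | Detection: AMC fluorescence from Ub-AMC cleavage, excitation 355 nm, emission 460 nm | Benchmarks: Wells without proteasome as full block, compound-free enzyme plus substrate as uninhibited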
Ecoli growth = E. coli growth inhibition, primary screen, OD600; 330,000 tested, 0.21% active; OD600 absorbance (no concentration beside the values); AID 1053175, 2014; Escherichia coli growth, 23 h; hits give low values;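 active = OD600 absorbance below the run mean of sample wells minus 3.6 SD, in any replicate, cut at about 0.56 in these data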;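 also: stock transfer was 300 nL into about 60 µL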
Vif TR-FRET = inhibitors of Vif binding to APOBEC3G peptide, primary screen, biochemical, TR-FRET, GST-Vif 1-94, biotin-A3G peptide, dose response retest (AID 1117319); TR-FRET GST-Vif / biotin-A3G peptide binding; higher % means a stronger effect; test concentration not given here; strong numbers were not always called active; inhibition, %, or IC50 in µM where a hit was titrated; 260,000 tested, 0.57% active;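 active = above the screen mean plus three standard deviations and confirmed in dose response; inconclusive = results disagree or hit not tested in dose response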;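 also: Vif residues 1-94 fused to GST binding biotinylated APOBEC3G peptide 110-148; 0% = full assay without inhibitor and 100% = GST in place of GST-Vif; retest series ran down from 100 µM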
Bfl-1 A1 inh = caspase 3/7 activation in MEF A1-2A-BIM cells, primary screen, A1 inhibitor project, cell-based, luminescence, HTS; caspase activation, % (no concentration beside the values); Caspase-Glo 3/7 luminescence, 3 h; percent of clofoctol response, vehicle zero; 330,000 tested, 0.066% active; AID 2462, 2010;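 active = over half of replicate activation scores above 10%, or exactly half above 10 with the replicate mean above 10; inconclusive = replicate mean below 10 yet half the replicates above 10; inactive = over half of replicates below 10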;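 also: wells of about 30 µL received 50 nL stock; many hits fall short of the cut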
HNF4A DNA FP = change in binding of human HNF4A to DNA, primary screen, biochemical, fluorescence polarization, FITC-DNA; Hepatocyte nuclear factor 4-alpha (Homo sapiens), P41235; 1 h; activity change, % at 10 µM; 360,000 tested, 0.3% active; AID 1224865, 2016; in the data active = activity change above about 30%, passing the limit was not always enough;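 also: controls were the assay level and a saturating level of protein; the project sought stronger binding though the title names inhibitors; some compounds called inactive have numbers as strong as hits; positive values seem to mean higher polarization but the record does not say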
An asterisk follows results filed as active; ? = inconclusive; . = not tested or not shown; & = joins results of further samples.

SMILES	LANA-H2A inh	B2AR ag	UCH37 DUB inh	Ecoli growth	Vif TR-FRET	Bfl-1 A1 inh	HNF4A DNA FP
CC(C)OCc1c(C(=O)Nc2nccs2)oc2ccccc12	-2.7	1	.	.	.	0.0	2.2
COCCNC(=O)C(=O)NCC1OCCN1S(=O)(=O)c1ccc(F)cc1 (stereo unspecified)	-4.4	0	-1.3	0.71	-3%	1.2	2.0
Cc1cccc(C)c1OCc1nnc(SCC(=O)NCc2ccccc2)o1	0.9	-4	4.1	0.7	-1%	0.0	3.0
Cc1ccc(Cn2c(=O)c3c(nc4n3CCCN4Cc3ccccc3)n(C)c2=O)cc1	-0.2	2	7.3	0.78	-1%	0.0	-1.9
COc1ccc(OCC(=O)Nc2c(C(=O)N(CCN(C)C)Cc3ccco3)oc3ccccc23)cc1	-9.5	5	0.9	0.65	.	0.0	-2.4
CN(C)c1nc2n(c(=O)n1)CCS2	1.2	1	0.3	0.69	-3%	-0.3	-8.5
COc1ccc(OCC(O)Cn2c(N)nc3c2c(=O)[nH]c(=O)n3C)cc1 (stereo unspecified)	0.3	-1	-2.0	0.69	10%	0.4	3.0
Cc1cc(Nc2ccc(Br)cc2F)n2nc(C)nc2n1	-0.1	-2	4.2	0.75	?	-0.1	-1.8
COc1cc(C2C3=C(CC(C)(C)CC3=O)Nc3ccccc3N2C(C)=O)cc(OC)c1OC (stereo unspecified)	-0.1	9	-1.5	0.65	.	0.3	1.1
c1cc(-c2n[nH]c(-c3ccncc3)n2)ccn1	-3.2	5	.	.	0%	-0.4	-3.7
O=C(CS(=O)(=O)c1cn(Cc2ccc(Cl)cc2)c2ccccc12)N1CCCCC1	-3.5	-9	4.0	0.74	2%	0.4	0.9
COc1ccc([C@H]2CC(=O)C=C(c3cccc(C(C)C)c3)C2)cc1	0.3	-7	3.7	0.76	.	0.8	0.6
Cc1cc(C(=O)N2CCN(c3ccc(C(F)(F)F)cn3)CC2)c(C)o1	1.5	0	-1.4	0.66	-5%	0.9	6.2
CCC(C)(C)n1nnnc1CN(Cc1ccc(Cl)cc1)Cc1ccco1	5.3	6	3.7	0.76	1%	-0.9	1.3
O=C(COC(=O)/C=C/c1ccc(F)cc1)Nc1ccc2[nH]c(=O)[nH]c2c1	-2.8	-1	1.3	0.65	6%	1.5	-0.9
CCOC(=O)c1c2ccc(OCC(=O)NN)cc2n2ccccc12	-4.3	-9	-123	0.69	-12%	-0.3	-15
COc1ccc(-c2nc(CSCC(=O)NCCC3=CCCCC3)c(C)o2)cc1OC	-0.1	-4	-0.5	0.69	-9%	0.2	-2.3
NS(=O)(=O)c1ccc(NC(=O)c2cc(-c3ccccc3O)n[nH]2)cc1	1.1	10	0.3	0.71	2%	-0.9	0.0
COc1ccc(S(=O)(=O)Nc2ccccc2C(=O)N2CCOCC2)cc1F	-7.0	-1	-2.3	0.73	.	2.2	2.7
Cc1cc(C)c(S(=O)(=O)N2CCOC2CNC(=O)C(=O)NCCCN2CCOCC2)c(C)c1 (stereo unspecified)	-4.3	-3	-0.1	0.62	2%	2.1	3.2
CC1=CN2C(=N)/C(=C/c3cn(CCCOc4ccccc4C)c4ccccc34)C(=O)N=C2S1	6.7	-11	-18	0.74	19%	0.9	0.7
CC1(C)Cc2ccccc2-c2nc3ccccc3c(=O)n21	-1.0	-10	1.3	0.67	-1%	0.0	-5.3
CCc1nnc(NC(=O)CCC(=O)N2CCN(Cc3ccc(OC)c(F)c3)CC2)s1	2.6	2	1.2	0.65	.	-0.4	-0.1
CCN1CCN(c2cc(C)c3cc(NC(=O)CCC(=O)Nc4ccc(OC)cc4OC)ccc3n2)CC1	1.2	18	-82	0.67	.	1.2	0.8
CC(C)n1cc(/C=C/c2cc[n+](C)cc2)c2ccccc21	.	-34	28*	0.67	.	.	67
Later entries:
SMILES	LANA-H2A inh	B2AR ag	UCH37 DUB inh	Ecoli growth	Vif TR-FRET	Bfl-1 A1 inh	HNF4A DNA FP
O=C/C(=C\Nc1ccccn1)c1nc2ccccc2o1	-3.0	-11	1.1	0.66	18%	-0.9	5.7
COc1ccc(S(=O)(=O)N2CCN(CC(=O)c3[nH]c(C)c(C(C)=O)c3C)CC2)cc1OC	-1.4	-6	-0.9	0.67	-5%	-0.5	-3.2
CN(C)C(=O)C(OC(=O)c1ccc2c(c1)CCCC2)c1ccccc1 (stereo unspecified)	-4.2	-11	2.1	0.65	1%	0.0	-3.3
COc1c(C(=O)Nc2ccc(CN3CCOCC3)cc2)cc2ccccc2c1Br	2.3	-2	5.0	0.68	-2%	0.0	0.7
COC(=O)C1=C(C)N(CCc2ccc(OC)c(OC)c2)C(=O)/C1=C\N(C)C	4.3	-2	6.3	0.72	9%	0.3	-1.4
CCOC(=O)N1CCC(NC(=O)C2CCN(C(=O)N3CC(C)Oc4ccc(C)cc43)CC2)CC1 (stereo unspecified)	1.8	7	0.1	0.67	2%	-0.5	1.7
C=CCn1c(SCc2ccc(C(=O)NCCO)cc2)nc2sc(C)c(C)c2c1=O	23*	7	-0.1	0.69	-6%	0.2	-1.2
CN(C)S(=O)(=O)c1ccc(C(=O)Nc2ccnn2C2CCCCC2)cc1	-1.9	-4	4.2	0.73	25%	0.9	3.9
O=C(CN1C(=O)C2C3C=CC(C4CC34)C2C1=O)Oc1ccccc1 (stereo unspecified)	1.9	4	2.4	0.68	16%	0.3	0.9
c1cc2nnnn2nc1N1CCCCCC1	3.4	3	0.8	0.69	-4%	-0.3	-4.0
Cc1cc2nc(C)n(CCCNC(=O)Nc3ccc(C#N)cc3)c2cc1C	-9.8	3	0.4	.	-1%	0.3	-1.8
CCSc1nnc(NC(=O)c2cnccn2)s1	4.1	.	8.6	0.72	.	0.0	.
CN(CCC1CCOCC1)C(=O)C1CCC(=O)N(CCc2cccc(F)c2)C1 (stereo unspecified)	2.3	5	4.3	0.7	7%	-1.3	-0.9
O=c1c(C=NCCN2CCNCC2)c(-c2ccccc2)[nH]n1-c1ccc([N+](=O)[O-])cc1	-0.7	.	11	0.66	-4%	-0.1	.
CCCC(C(=O)NC1CCCC1)N(C(=O)Cn1nnc(-c2ccc(C)o2)n1)c1cccc(O)c1 (stereo unspecified)	.	-1	2.4	0.72	2%	.	0.9
COc1ccc(C)cc1S(=O)(=O)N(C)CC(=O)NC1CC1	2.1	16	4.5	0.66	5%	-0.5	-1.3
CC(C)CCNC(=O)C1CC(c2cccc([N+](=O)[O-])c2)=NO1 (stereo unspecified)	4.5	-2	2.5	0.6	1%	0.3	0.8
CN(NC(=O)Nc1ccccc1)c1cnn(C)c(=O)c1Cl	0.1	-2	6.2	0.7	-2%	-1.3	0.7
COc1ccc(C2=CC3=C(Br)C(=O)C(C)(OC(=O)c4ccc(Cl)nc4)C(=O)C3=CO2)cc1 (stereo unspecified)	3.0	.	1.0	0.7	?	2.7	.
COc1cccc(N2CCN(C(=O)/C=C/c3ccco3)CC2)c1	-1.7	-5	-0.2	0.71	.	-0.6	1.8
O=C(NCc1ccco1)C(c1ccco1)N(C(=O)Cn1nnc2ccccc21)c1ccc2c(c1)CCC2 (stereo unspecified)	-1.7	2	2.4	0.76	0%	-0.7	-1.5
Cc1cccc(C(=O)Nc2nc(C)c(C(=O)Nc3ccc4c(c3)CCC4)s2)c1	-4.8	-13	-10	0.73	4%	-4.7	-0.5
N#C/C(C(=O)NCCc1ccccc1)=C1/N=C(NC(=O)c2cccs2)c2ccccc21	2.6	3	3.4	0.79	.	0.7	8.6
COc1cc2c(c(OC)c1OC)-c1ccc(NC(=O)c3ccc(F)cc3)c(=O)cc1[C@@H](NC(C)=O)CC2	0.6	-13	.	.	.	-0.5	-6.4
Cc1cc(C)n(-c2nncn2/N=C/c2ccccc2F)n1	0.5	-4	.	.	-5%	1.4	4.2
(continued)
SMILES	LANA-H2A inh	B2AR ag	UCH37 DUB inh	Ecoli growth	Vif TR-FRET	Bfl-1 A1 inh	HNF4A DNA FP
O=C(CCCC(=O)OCC(=O)NC1CCCC1)Nc1ccccn1	2.0	13	0.8	0.62	3%	0.0	0.8
O=C(O)CSCc1ccc(C(=O)O)o1	1.8	-6	4.6	0.7	12%	-0.7	-5.1
CC(C)C(=O)NC(=S)Nc1ccc(CN2CCOCC2)cc1	-96	3	1.4	0.7	.	0.1	-0.4
Cc1ccc(-c2ocnc2C(=O)N2CCOCC2)cc1	-3.6	-8	1.6	0.68	-10%	1.4	0.4
C=CCn1c(SCC(C)=O)nnc1-c1ccc2ncccc2c1	-0.3	-1	2.5	0.7	.	0.3	-1.9
Cc1nnc(NC(=O)CSc2nnc(-c3ccc(S(=O)(=O)N4CCCC4)cc3)n2C)s1	-3.1	-6	0.3	0.71	14%&-5%	0.6	4.9
CN(C)c1ccc(/C=C(\C#N)c2ccccc2)cc1	.	19	.	.	0%	.	2.9
Cn1c2ccccc2c2nnc(N/N=C/c3ccc(O)cc3)nc21	4.9	1	.	.	.	0.9	1.4
O=C(COC(=O)C1CCN(S(=O)(=O)c2cccs2)CC1)c1cc2ccccc2o1	15	-2	-1.3	0.7	17%	-0.3	2.1
Cc1ccc(-c2nnn(CC(=O)N(CC(=O)NCC3CCCO3)c3ccc(F)c(Cl)c3)n2)o1 (stereo unspecified)	-8.8	-9	4.5	0.65	-14%	-0.1	1.8
COc1ccc(CN2CCNC(=O)C2CC(=O)N(C)Cc2ccncn2)c(OC)c1 (stereo unspecified)	1.8	-1	2.9	0.63	16%	-0.3	-1.4
Cc1ccc(OCC(=O)N(C)CC(=O)NCc2ccco2)c(Br)c1	.	1	2.8	0.64	26%	.	-13
O=C(c1ccc(Cl)c(S(=O)(=O)N2CCc3ccccc32)c1)N1CCN(c2ccccc2O)CC1	4.5	15	0.8	0.67	6%	-0.8	-3.4
O=C(CN(c1cccc(Br)c1)S(=O)(=O)c1ccccc1)N/N=C/c1cc([N+](=O)[O-])ccc1O	2.6	7	.	.	.	-0.4	-3.8
CCc1cccc(CC)c1NC(=O)CN1CCN(c2ccccc2)CC1	-0.7	-9	6.2	0.71	-2%	-0.6	-3.6
COc1ccc(CCN2C(=NC(=O)C(C)C)SC3CS(=O)(=O)CC32)cc1 (stereo unspecified)	-2.4	-1	0.6	0.67	25%	0.1	-3.0
Nc1c2c(nc3sc4c(c13)CCCCC4)CCCCC2	-7.8	3	0.8	0.7	-3%	-8.3	-0.2
COc1ccc(-c2nn(-c3ccccc3)cc2/C=C\C(=O)N2CCOCC2)cc1[N+](=O)[O-]	5.1	-8	3.2	.	-5%	-0.4	2.4
CC(C)[N+](C)(C)CC(O)CN(c1ccccc1)c1ccccc1 (stereo unspecified)	0.1	-4	-1.3	0.7	9%	0.1	3.8
Cc1nc(N2CCN(C)CC2)c2c(C)c(C(=O)Nc3ccc(C)c(F)c3)sc2n1	-0.4	9	6.8	0.71	-3%	-0.5	1.2
O=C(O)c1c2cc(Br)ccc2nc2[nH]c(=O)[nH]c(=O)c12	.	1	-12	0.68	-1%	.	-2.0
COc1ccccc1-n1ccnc1SCC(=O)NCc1ccco1	7.7	-1	1.4	0.71	4%	1.4	-3.4
